BJeLR lethal = MLPCN primary cell-based screen for lethality selective to Ras in HRASV12 cells. inhibition, % (concentration not given with the values). BJeLR (HRASV12) viability, CellTiter-Glo ATP luminescence, 48 h; reference of the scale not given here. 300,000 compounds, 0.17% hits. AID 1554, 2009;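 active = replicate mean above 50%; inconclusive = above 50% but judged a plate artefact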;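 note: 50 nL library stock added to about 25 µL; numbers are from one replicate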
PrP UTR inh = inhibition of PrP 5' UTR reporter expression | 340,000 compounds, 0.35% hits | cell-based PrP 5' UTR mRNA reporter, plate reader | inhibition, % (test concentration not listed) | AID 488862, 2010;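 active = every replicate at 50% or more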;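 note: 0 = median of the neutral control wells; tested in H4 reporter cells; numbers are from one replicate; inactives centre near -14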
Sa ugtP lethal = growth inhibition of ugtP-null S. aureus, primary screen, RN4220 ugtP deletion, OD600; 16 h; some inactives read as strong as hits; growth inhibition, % (test concentration not listed); 330,000 compounds, 0.54% hits; AID 1259309, 2017;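 active = z-score under -3 and OD600 up to 0.15 on both plates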;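 note: plate controls were untreated wells for no effect and antibiotic for full effect; wells of about 80 µL received 100 nL stock; the first replicate is given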
RN4220 kill = growth inhibition of S. aureus RN4220, primary screen, OD600; 16 h; inhibition, % (concentration not given with the values); 330,000 compounds, 0.33% hits; AID 1259311, 2017;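 active = z-score of -3 or lower and OD600 up to 0.18 on both plates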;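 note: plate controls were untreated cells for no effect and reference antibiotic for full effect; stock transfer was 100 nL into about 80 µL; one replicate is shown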
Mtb hypoxia inh = PubChem AID 1159583; M. tuberculosis hypoxia-regulated fluorescent reporter, fluorescence; fluorescence inhibition, % (concentration not given with the values); 300,000 compounds, 0.1% hits;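 active = 35 to 45% if threefold the growth effect, above 45% if 1.5-fold the growth effect; inactive = the rest, general growth blockers included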;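 note: wells of about 50 µL received 100 nL stock; 0% = vehicle wells and 100% = reference inhibitor wells; whole bacteria with a GFP reporter of the hypoxia response; strong numbers were not always called active; many hits fall short of the cut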
Bead autofluor = compound fluorescence in toxin protease inhibitor counterscreen; fluorescence intensity (concentration not given with the values); compound autofluorescence counterscreen, microsphere flow cytometry; active compounds read high; 360,000 compounds, 3.1% hits; AID 624483;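 active = at least 3 SD above the mean of all compounds, about 16000 in these data; inconclusive = too few beads counted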;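 note: 100 nL of 1 mM stock went into each well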
Mtb hypoxia inh growth = second read-out of Mtb hypoxia inh, no call of its own (marks repeat the call); growth inhibition, %; measured here: M. tuberculosis growth (absorbance);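 0% = vehicle and 100% = reference antibiotic; read after six days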
The depositor's hits bear a star; ? = inconclusive; / = no result given.

SMILES | BJeLR lethal | PrP UTR inh | Sa ugtP lethal | RN4220 kill | Mtb hypoxia inh | Mtb hypoxia inh growth | Bead autofluor
O=C1c2ccccc2C2=Nc3ccccc3SC(c3cccc(F)c3)C12 (stereo not given) | -13.1 | -15.2 | -2.3 | -6.1 | 1.9 | 2.5 | 8720
O=c1c2ccccc2nnn1CSc1nnnn1-c1ccccc1 | -2.5 | -16.2 | 5.0 | 6.1 | 10.7 | 5.7 | 16778*
CC1CC(C)CN(C(=O)COC(=O)c2nn(C)c(=O)c3ccccc23)C1 (stereo not given) | 3.0 | -8.5 | 2.1 | 3.3 | 10.4 | -6.4 | 4333
CCN(Cc1ccccc1)c1ccc(C=NN=C(N)N)cc1 | / | / | 16.3 | 29.6 | 19.2 | 12.2 | /
N#Cc1nc(COc2ccc(Br)cc2)oc1N1CCCC1 | 0.4 | -18.2 | 14.5 | 11.5 | / | / | 2085
Cc1ccc(Cl)cc1NC(=S)N(CCCN1CCN(C)CC1)Cc1ccco1 | 6.0 | 5.6 | 2.7 | 0.4 | 12.4 | 8.9 | 3171
CCOC(=O)C1CCN(C(=O)Cn2cc(C#N)c3ccccc32)CC1 | 1.5 | -33.8 | -3.6 | 0.0 | / | / | 3760
COc1cc([N+](=O)[O-])ccc1-c1ccc(C=NNC(N)=O)o1 | / | / | 3.6 | 1.2 | -6.4 | 1.6 | /
CCNc1nc(C)c2cc(Br)c(=O)n(CC)c2n1 | 8.5 | 4.9 | 3.9 | 4.1 | 2.7 | 10.0 | 10332
COc1ccc(CNC(=S)NN=Cc2ccc(O)c(OC)c2)cc1 | / | / | 6.6 | 14.4 | 5.0 | 5.6 | /
Cc1ccccc1N1CCN(C2CCCN(C(=O)c3ccc(Cl)s3)C2)CC1 (stereo not given) | -5.6 | 16.4 | -3.3 | 2.6 | 17.0 | 5.8 | ?
Cc1noc(NS(=O)(=O)c2ccc(NC(=O)c3cccc(S(=O)(=O)N(C)c4ccccc4)c3)cc2)c1C | / | -11.1 | 2.8 | 1.1 | 7.9 | 7.2 | 4023
O=C(c1cnc2n(c1=O)CCS2)N1CCN(c2ccccc2F)CC1 | 11.9 | -16.6 | -7.8 | -15.5 | 5.2 | 15.0 | 4626
O=c1[nH]c2ccccc2c2oc(CCl)nc12 | -8.0 | -12.6 | 0.1 | 15.3 | 21.7 | 22.4 | 5029
COc1ccc(CNC(=O)C2CCN(C(=O)[C@@H]3Cc4ccccc4CN3)CC2)cc1 | 5.7 | 0.9 | -2.3 | -6.8 | 1.8 | -3.2 | 4728
COc1ccc(S(=O)(=O)N(C)C[C@@H]2Oc3ccc(NS(=O)(=O)c4cn(C)cn4)cc3C(=O)N([C@@H](C)CO)C[C@@H]2C)cc1 | / | -8.5 | -2.7 | -10.9 | 9.7 | 6.1 | 3337
COc1cccc(NC(=O)COC(=O)C2CCCCC2)c1 | / | -14.6 | 0.6 | -0.8 | -5.6 | -4.1 | /
COC(=O)c1cccc(NC(=O)CC2C(=O)NCCN2C(=O)Nc2cc(C)cc(C)c2)c1 (stereo not given) | -2.8 | -13.1 | 5.6 | 2.2 | 12.2 | 0.9 | 5850
COC(=O)CCCCCCCCCCN1CCCCC1 | 11.0 | -9.6 | 1.3 | 3.0 | 2.6 | 5.3 | 2559
O=C(NCCS(=O)(=O)N1CCN(c2ccccc2)CC1)c1cccs1 | -6.8 | -27.0 | 1.8 | 0.3 | -1.4 | -5.4 | 4485
Cc1c(NC(=O)c2cc(-c3ccc(Cl)cc3)on2)c(=O)n(-c2ccccc2)n1C | 0.3 | -9.5 | 10.0 | 3.5 | 8.0 | 1.0 | 4184
Cc1cccc(NCN2C(=O)c3ccccc3C2=O)c1 | -1.9 | -26.9 | 3.9 | 3.4 | -1.8 | 15.9 | 8834
CCn1ncc(Br)c1C(=O)Nc1ccc(F)c([N+](=O)[O-])c1 | -8.0 | 3.0 | -1.6 | 2.3 | 4.9 | 17.5 | 10655
CCOC(=O)COc1ccc(S(=O)(=O)NCc2ccncc2)cc1 | 1.9 | 12.6 | 3.6 | 4.7 | 15.3 | 5.2 | 8633
CCCS(=O)(=O)N1CCCC(C(=O)NCCCN2CCN(c3ccc(F)cc3)CC2)C1 (stereo not given) | 4.6 | 3.2 | -5.2 | 6.2 | 7.5 | 5.4 | 2771
O=C(Cc1csc(N2CCOCC2)n1)N/N=C/c1ccc(F)cc1 | -2.2 | -8.4 | / | / | / | / | 20712*
COc1ccccc1C(=O)N1CCN=C1SCc1cccnc1 | 6.6 | -5.2 | -2.1 | -3.0 | / | / | 2842
Cc1nc(NC(=O)CN(C)S(=O)(=O)c2ccc(Cl)cc2)sc1C | 12.6 | -6.5 | -1.3 | 5.9 | 5.7 | 2.2 | 14474
O=C(N/N=C/c1ccccc1O)c1cccc(C(F)(F)F)c1 | 14.8 | 37.8 | / | / | / | / | 10353
CN(C(=O)COC(=O)c1ccccc1NCc1ccco1)c1c(N)n(Cc2ccccc2)c(=O)[nH]c1=O | 7.4 | -0.2 | 0.4 | -2.5 | 9.1 | 1.9 | 5452
CC1CCCC(C)N1C(=O)COC(=O)c1nn(C)c(=O)c2ccccc12 (stereo not given) | -0.2 | -31.1 | 2.2 | 4.3 | 7.5 | 3.9 | 5353
CCN(CC)S(=O)(=O)c1ccc(NC(=O)c2cccnc2Cl)c(NC(=O)c2cccnc2Cl)c1 | 5.6 | -34.5 | -4.1 | 28.0 | -5.6 | -3.0 | 3389
COc1ccccc1CN1CCNC(=O)C1CC(=O)N(C)Cc1cnccn1 (stereo not given) | -2.1 | -12.8 | 2.8 | 1.4 | 5.0 | 1.5 | 4476
Cc1ccc(SCCC(=O)N2CCCC2)cc1 | 0.7 | -38.7 | 0.2 | 7.3 | 11.3 | 9.3 | 11143
Cc1ccc(-n2c(C)cc(C(=O)CSc3nnc4ccccn34)c2C)cc1 | 6.8 | -71.2 | -0.7 | 1.7 | -11.4 | -5.1 | 2510
CCCC(=O)NC(C)C(c1cccs1)N1CCN(c2ccccc2)CC1 (stereo not given) | 0.7 | -23.8 | 4.3 | 5.1 | 17.1 | 4.1 | 10310
C/C=C(\C)C(=O)Nc1cccc(C2=NOC3(C2)C[C@@H](C(N)=O)N(C(=O)/C(C)=C/C)C3)c1 (stereo not given in full) | 3.9 | -25.8 | / | / | / | / | 4060
NC(N)=NCC(O)CN(c1ccccc1)c1ccccc1 (stereo not given) | -0.5 | / | 2.8 | 2.1 | 18.9 | 8.3 | /
CCc1ccc(C(=O)N2CCC(c3nc4ccccc4s3)CC2)cc1 | -3.1 | -8.9 | 1.4 | 1.3 | 7.6 | 3.9 | 3321
CC(CC(=O)Nc1ccc(N(C)C)cc1)=NNC(=O)c1ccccc1F | / | / | -2.3 | 1.9 | 1.2 | -5.0 | /

Three compounds from above, reduced to BJeLR lethal and Sa ugtP lethal:
| mol | BJeLR lethal | Sa ugtP lethal |
| --- | --- | --- |
| Cc1ccc(SCCC(=O)N2CCCC2)cc1 | 0.7 | 0.2 |
| Cc1ccc(-n2c(C)cc(C(=O)CSc3nnc4ccccn34)c2C)cc1 | 6.8 | -0.7 |
| CCCC(=O)NC(C)C(c1cccs1)N1CCN(c2ccccc2)CC1 (stereo not given) | 0.7 | 4.3 |

The list goes on.
SMILES | BJeLR lethal | PrP UTR inh | Sa ugtP lethal | RN4220 kill | Mtb hypoxia inh | Mtb hypoxia inh growth | Bead autofluor
CN(C)C(CNC(=O)c1ccc(NS(=O)(=O)c2ccc(F)cc2)cc1)c1ccco1 (stereo not given) | 0.6 | -44.7 | 1.5 | 1.1 | 10.6 | 4.7 | 36456*
O=C(CN1C(=O)COc2ccccc21)NCCCN1CCCCC1 | 9.4 | -1.7 | 5.2 | 0.2 | 2.6 | -3.2 | 6010
COc1ccc(-c2cc(C(=O)NCCc3ccccc3)no2)cc1OC | 5.4 | -6.7 | 5.0 | 9.2 | 13.3 | 4.6 | 20927*
Cc1nnc(NC(=O)CSc2nc3c(c(=O)n2CCc2ccccc2)SC(C)C3)s1 (stereo not given) | 2.0 | -15.4 | 3.1 | 15.1 | -6.9 | 1.4 | 6274
O=C(CSc1nnc(C2CC2)n1C1CC1)c1cccs1 | / | -18.1 | 3.7 | 2.4 | 10.2 | 10.0 | 3921
O=Cc1ccc(OCC(=O)Nc2ccccc2C(F)(F)F)cc1 | 17.3 | -18.4 | 5.7 | 14.3 | -7.1 | 0.2 | 3067
O=C(COC(=O)c1ccccc1O)NCCc1c[nH]c2ccccc12 | / | -14.8 | -5.0 | 3.3 | 1.9 | 1.6 | 4829
Cc1cccn2c(=O)c(/C=C(\C#N)S(=O)(=O)c3ccccc3)c(N3CCN(c4ccccc4)CC3)nc12 | -2.3 | -53.1 | 4.2 | 5.1 | 1.2 | -3.6 | 13836
N#Cc1cnn2c(-c3ccc(Cl)cc3Cl)ccnc12 | 12.2 | -2.5 | -0.9 | 0.1 | 13.0 | 2.5 | 4053
Clc1cccc(CN2CCN(c3ncccn3)CC2)c1Cl | -2.2 | -23.0 | 9.5 | 3.0 | -0.5 | 9.0 | 3827
O=C(CN1CCN(c2ccccc2)CC1)NCc1ccc(F)cc1 | -4.6 | -12.7 | 1.1 | -2.6 | 7.3 | 2.3 | 4274
CC(C)(C)NC(=O)C1CCCN(S(=O)(=O)c2ccc(-n3cnnn3)cc2)C1 (stereo not given) | -4.1 | -14.4 | 3.4 | 1.6 | -1.9 | 0.2 | 5563
CCc1ccc(NC(=O)C2CCCN(S(=O)(=O)c3cnc[nH]3)C2)cc1 (stereo not given) | 6.3 | 1.8 | 1.3 | -1.0 | -6.4 | 8.4 | 5573
CCCCN(CC)S(=O)(=O)c1ccccc1 | -8.7 | -21.3 | 8.1 | 6.3 | 19.0 | 5.6 | ?
O=C(N/N=C/c1ccccn1)c1ccc(Br)o1 | -2.4 | -8.8 | / | / | / | / | 3692
CC1CN(C(C)CO)C(=O)c2cc(NC(=O)Cc3ccccc3)ccc2OC1CN(C)S(=O)(=O)c1ccccc1 (stereo not given) | / | / | 6.0 | -0.1 | 1.8 | 0.8 | /
C=CCn1c2ccccc2c(=O)c2cc(C#Cc3cc(OC)cc(OC)c3)ccc21 | / | -3.7 | -10.8 | 3.0 | -0.8 | 3.6 | 3299
CCC(C)n1c(SCC(=O)NC2CCCC2)nc2ccccc2c1=O (stereo not given) | -4.4 | -16.8 | 6.2 | 2.4 | 5.9 | -1.5 | ?
CC(Oc1ccc2c3c(c(=O)oc2c1)CCC3)C(=O)NCC1CCC(C(=O)O)CC1 (stereo not given) | -0.7 | -18.2 | 8.6 | 4.2 | / | / | 5718
Cc1ccc(S(=O)(=O)N(Cc2ccc(Cl)cc2)c2ccccc2C(=O)O)cc1 | 0.9 | 1.1 | -0.5 | 7.4 | 5.7 | 1.8 | 3125

Filtered by structure, those above with a COOH group
SMILES | BJeLR lethal | PrP UTR inh | Sa ugtP lethal | RN4220 kill | Mtb hypoxia inh | Mtb hypoxia inh growth | Bead autofluor
CC(Oc1ccc2c3c(c(=O)oc2c1)CCC3)C(=O)NCC1CCC(C(=O)O)CC1 (stereo not given) | -0.7 | -18.2 | 8.6 | 4.2 | / | / | 5718
Cc1ccc(S(=O)(=O)N(Cc2ccc(Cl)cc2)c2ccccc2C(=O)O)cc1 | 0.9 | 1.1 | -0.5 | 7.4 | 5.7 | 1.8 | 3125

The list continues.
SMILES | BJeLR lethal | PrP UTR inh | Sa ugtP lethal | RN4220 kill | Mtb hypoxia inh | Mtb hypoxia inh growth | Bead autofluor
CCC(C)(C)NC(=O)c1ccc2c(c1)N(CC(=O)NC1CCCC1)C(=O)C(C)(C)O2 | 3.4 | -21.4 | 5.1 | 0.4 | 10.4 | 13.1 | 5169
CC1CC2(CCCCC2)N2C(=O)C(=O)c3cccc1c32 (stereo not given) | 3.6 | -10.8 | -8.9 | 5.1 | 6.2 | 5.0 | 10786
CC(=NCc1ccccc1)C1=C(O)COC1=O | -2.5 | -0.7 | 4.2 | -1.4 | / | / | 3691
N#Cc1c(NCCCO)nc(-c2ccccc2)c2c1CCCC2 | -4.6 | -4.2 | -8.5 | 6.4 | / | / | 4827
Cn1c(=O)c2c(SCC(=O)N3CCCc4ccccc43)nc(C3CC3)nc2n(C)c1=O | -9.3 | -2.8 | -0.9 | 15.9 | -5.6 | 8.0 | 6122
CC/C(Cc1ccccc1)=N/NC(=O)CCn1nnc2ccccc21 | 6.4 | -27.1 | / | / | / | / | 1979
COc1ccc(-n2nnnc2SCC(=O)NC2CCS(=O)(=O)C2)cc1 (stereo not given) | / | / | -3.4 | 0.2 | -9.0 | 2.9 | ?

Screening data deposited in PubChem BioAssay by several laboratories.
